Rango complex inh: Rango-importin beta binding inhibition; Potency, µM (series often up to 92.2 µM), without a hit: at the top dose inhibition of complex formation; AID 540263; Rango CFP/YFP FRET sensor + importin beta, 45 min; Q14974; actives 0.031% (n = 340,000); active = rising FRET ratio curve, often small or poorly fitted; inconclusive = mostly compound fluorescence or quenching in the first reads; inactive = flat curves in all reads;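 also: potency is read from the fitted curve at half-maximal effect; 0% = DMSO wells and 100% = buffer wells lacking importin beta; nearly all actives have a fitted effect of over 15% in size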
Target sequence (Q14974 whole entry, looked up): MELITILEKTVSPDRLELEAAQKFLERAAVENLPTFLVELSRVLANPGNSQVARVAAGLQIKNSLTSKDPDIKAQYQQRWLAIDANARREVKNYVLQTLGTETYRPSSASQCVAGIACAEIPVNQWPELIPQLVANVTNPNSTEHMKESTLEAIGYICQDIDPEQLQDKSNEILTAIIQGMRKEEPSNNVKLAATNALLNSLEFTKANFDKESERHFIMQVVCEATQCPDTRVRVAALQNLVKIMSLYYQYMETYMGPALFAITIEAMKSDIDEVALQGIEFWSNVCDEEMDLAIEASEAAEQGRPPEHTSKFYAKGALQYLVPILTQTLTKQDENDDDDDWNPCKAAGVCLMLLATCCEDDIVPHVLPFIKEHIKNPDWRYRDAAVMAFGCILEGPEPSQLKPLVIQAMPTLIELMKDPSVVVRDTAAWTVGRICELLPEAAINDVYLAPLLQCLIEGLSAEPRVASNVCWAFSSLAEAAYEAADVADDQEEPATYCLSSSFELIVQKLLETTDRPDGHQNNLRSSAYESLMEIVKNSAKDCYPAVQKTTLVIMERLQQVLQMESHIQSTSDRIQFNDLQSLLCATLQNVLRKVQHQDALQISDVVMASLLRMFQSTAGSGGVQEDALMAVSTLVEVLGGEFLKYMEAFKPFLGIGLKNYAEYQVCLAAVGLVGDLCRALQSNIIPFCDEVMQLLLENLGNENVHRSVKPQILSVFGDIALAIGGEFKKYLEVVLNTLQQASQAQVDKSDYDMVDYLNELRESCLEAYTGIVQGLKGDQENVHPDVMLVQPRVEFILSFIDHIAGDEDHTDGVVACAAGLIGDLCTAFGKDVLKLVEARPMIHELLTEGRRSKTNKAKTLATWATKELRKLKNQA
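FRET biosensor Rango (snurportin 1 IBB between N-terminal EYFP and C-terminal Cerulean), 50 nM in PBS/1 mM DTT/0.02% Tween-20/0.1% BSA, preincubated 5 min RT with compound; 0.125 microM importin beta added, 45 min RT, CFP/YFP FRET ratio read.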
GLA inh pH 4.5: blocks human alpha-galactosidase A at pH 4.5; P06280; purified enzyme, 4-MU-alpha-Gal fluorescence, pH 4.5; activity change, negative = inhibition, % at 105 µM; 230,000 tested, under 10 active; AID 1467; inconclusive = small, poorly fitted or top-dose-only inhibition, or a rising curve; inactive = flat fitted curve, though single readings scatter; no compound was filed as active;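 also: 0% = full activity with enzyme and -100% = basal without enzyme; dose as in the result columns while the protocol names 77 µM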
miR-21 reporter: miR-21 reporter, rising signal. HeLa miR-21 FLuc reporter, luciferase, 48 h. Potency, µM (series often up to 38.3 µM), without a hit: at the highest dose reporter change, positive = more light. 340,000 tested, under 10 active; active = well fitted rising curve with a large enough effect; inconclusive = small, poorly fitted or top-dose-only effect; inactive = no such curve, though single readings can be large or run the other way;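 also: % of control where 0% means no effect; miR-21 action dims this reporter so a rising signal means less miR-21 action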
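Compounds were titrated across several concentrations (up to approximately 40 uM) and incubated 48 hours with HeLa miR-21-FLuc reporter cells (miR-21 target sequence downstream of FLuc, endogenous miR-21). Readout was firefly luciferase luminescence after lytic detection reagent.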
Rango dissoc inh: inhibitors of RanGTP-induced Rango-importin beta complex dissociation; actives 0.071% (n = 340,000); Biochemical FRET Rango-importin beta, RanGTP-induced dissociation; Potency, µM (series often up to 46.1 µM), without a hit: at the highest dose activity change, negative = inhibition; O95149+P62826; active means falling FRET ratio curve, often poorly fitted, with flat reads before Ran was added; inconclusive means other falling curves, or compound fluorescence or quenching; inactive means flat or rising ratio curve;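 also: potency is read from the fitted curve at half-maximal effect; % of control where 0% means no effect; nearly all actives have a fitted effect of over 45% in size; -100% = wells without RanGTP and RCC1; the record marks most hits as doubtful in a second field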
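Rango (0.1 uM)–importin beta (0.25 uM) complex; RanGTP-RCC1 trigger; 45 min RT; CFP/YFP FRET read.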
Starred values were filed as active, the others as inactive; ? = inconclusive; / = not tested or not shown; & = joins results of further samples. A portion of the library. The share of hits here may be higher or lower than overall.

SMILES	Rango complex inh	GLA inh pH 4.5	miR-21 reporter	Rango dissoc inh
COc1ccc(-c2noc(CCC(=O)NCc3cc(Br)ccc3OC)n2)cc1	0.7%	3	-4%	4%
O=C(Nc1ccccn1)c1ccc(-c2ccccc2)cc1	-0.9%	/	25%	-7%
CC1=C(C#N)C(NC(=O)c2ccc(C)cc2)(C(F)(F)F)C(=O)N1 (stereo not given)	0.7%	-1	-1%	1%
CCc1ccc(NC(=S)N2CCCCCCC2)cc1	-4.2%	-5	-48%	-16%
COc1ccc(NC(=O)Nc2c(C)n(C)n(-c3ccccc3)c2=O)c(OC)c1	?	/	0%	-9%
O=C(COC(=O)C1=COCCO1)Nc1cccc(Oc2ccccc2)c1	-0.4%	-7	-2%	0%
Cc1cc(C(=O)NNC(=O)/C=C/c2ccco2)c(C)o1	?	/	/	-21%
CCn1c(=O)c(C(=O)NNC(=O)Cc2ccccc2)c(O)c2ccccc21	1.8%	/	0%	-2%
CC[C@H](C)[C@@H](CN[C@H](CCCCNC)CNC)NCC1CCCC1	2.4%	/	0%	-11%
Cn1cccc1C(=O)NC(=O)COC(=O)c1cc(Cl)ccc1[N+](=O)[O-]	-5.2%	-3	0%	-25%
Cc1ccccc1Cn1ccc(NC(=O)c2cc3nc(-c4ccco4)cc(C(F)(F)F)n3n2)n1	?	17	-3%	?
COc1ccccc1N1CCN(/N=C(\C)c2ccccc2O)CC1	3.0%	/	-37%	-3%
CCN(C(=O)c1ccc(=O)n(C)n1)c1c(N)n(Cc2ccccc2)c(=O)[nH]c1=O	0.9%	/	/	-4%
Cc1cc(C)c(S(=O)(=O)NCc2cn3c(C)csc3n2)cc1C	1.8%	-7	1%	-7%
Cc1onc(C(=O)N2CCC(Cc3ccccc3)CC2)c1[N+](=O)[O-]	-0.5%	/	15%	9%
Cc1ccc(C(=O)N/C(=C\c2ccco2)C(=O)NCCCn2ccnc2)cc1C	2.5%	5	-8%	-16%
CCOc1ncccc1C(=O)OCC(=O)Nc1ccc(C(C)C)cc1	?	-1	-1%	17%
Cc1ccc(S(=O)(=O)N(C)c2ccc(OC(=O)c3cccs3)cc2)cc1	0.2%	/	/	0%
Cc1cc(C)c(NC(=O)CCCN2CCCC2)c(C)c1	-1.0%	/	5%	5%
CC(C)CC(c1nnnn1C1CCCCC1)N1CCN(c2ncccn2)CC1 (stereo not given)	0.5%	-1	1%	1%
O=[N+]([O-])c1ccc(N2CCCCC2)nc1N1CCCCC1	-2.9%	-10	-6%	3%
CCC(Sc1nc2ncccc2[nH]1)C(=O)NCCc1ccccc1 (stereo not given)	0.1%	/	2%	3%
Cc1ccnc(NS(=O)(=O)c2ccc(NC(=O)c3oc4ccc(F)cc4c3C)cc2)n1	-2.5%	/	-7%	9%
Cc1cc(NC(=O)CSc2nc3c([nH]c4ccccc43)c(=O)n2-c2cccc(C(F)(F)F)c2)no1	-0.9%	7	0%	-8%
O=S(=O)(c1cccc2nsnc12)N1CCN(C/C=C\c2ccccc2)CC1	1.1%	-4	0%	1%

Additional compounds:
SMILES	Rango complex inh	GLA inh pH 4.5	miR-21 reporter	Rango dissoc inh
O=C(Cn1c(C(F)(F)F)nc2ccccc21)NCCN1CCCC1	-3.3%	-1	2%	-8%
O=C(CNCc1ccccc1)Nc1cccc(Cl)c1Cl	-2.4%	/	-7%	-3%
CCCCn1c(N)c(N(CC(C)C)C(=O)c2ccc([N+](=O)[O-])o2)c(=O)[nH]c1=O	?	/	/	-19%
COCCN1Cc2cccc(C(=O)Nc3cc(OC)ccc3OC)c2C1=O	4.4%	0	-4%	18%
Cc1ncc(CN2CCN(C(C)C)C(CCO)C2)s1 (stereo not given)	-0.1%	5	0%	2%
CCN1CCN(C(=O)c2cc(S(=O)(=O)Nc3ccc(S(C)(=O)=O)cc3)ccc2Cl)CC1	-0.2%	8	4%	-6%
C/C(CCc1ccccc1)=N\NC(=O)c1ccccc1	6.4%	-2	-56%	-1%
CCn1cc(C=C2C(=O)c3ccccc3C2=O)c2ccccc21	?	-6	-6%	?
CC(C)C(=O)OCC(=O)Nc1ccc2c(c1)CCC2	2.8%	0	1%	0%
Cc1cccc(OCC(=O)Nc2cccc(O)c2)c1	-0.6%	5	-52%	-2%
Cc1ccc(CC(=O)N(C)CC(=O)Nc2ccc(N3CCOCC3)cc2)cc1C	-0.5%	/	/	-9%
Oc1ccccc1C1=Nc2ccccc2N=C(c2cccs2)C1	-1.2%	-1	13%	1%
CCOc1nc(Nc2ccc(OC)cc2)nc(N2CCOCC2)n1	-0.7%	-4	-4%	-22%
C=CCOc1ccc(C2NC(=S)NC3=C2CCc2ccccc23)cc1 (stereo not given)	-2.6%	-10	-14%	-1%
COC(=O)C(Nc1ccccc1Cl)(c1cc(C)c(O)c(C)c1)C(F)(F)F (stereo not given)	-1.1%	-4	16%	4%
NNC(=O)c1cccc(Cn2cc(Br)c([N+](=O)[O-])n2)c1	-3.8%	-10	-2%	-2%
FC(F)(F)c1cccc(-n2cccc2/C=N/n2cnnc2)c1	-1.0%	-4	-7%	4%
C[C@@H]1[C@H](c2ccccc2)Oc2ccc(Cl)cc2S(=O)(=O)N1CC1CCCN1C(=O)OC(C)(C)C (stereo not given in full)	-3.5%	/	/	-2%
CC(CC(=O)NCc1ccccc1)C1CCCO1 (stereo not given)	-4.1%	-3	-26%	16%
CSCCC(NC(=O)c1ccccc1Cl)C(=O)N1CC(C)OC(C)C1 (stereo not given)	-2.8%	/	/	-14%
CC(=O)Nc1ccc(S(=O)(=O)Nc2ccc(NC(=O)c3ccco3)cc2)cc1	2.2%	3	-3%	-1%
O=C(c1ccc(F)cc1)N1CCC(C(=O)N2CCN(c3ncccn3)CC2)CC1	0.8%	/	/	?
COc1ccccc1NC(=O)COc1ccc(-c2nn(C)c(=O)c3ccccc23)cc1	-4.5%	/	6%&15%	-9%
Nc1nc(-c2ccc3c(c2)OCCO3)c(CC(=O)O)s1	3.5%	/	-16%	-6%
COc1cc(OC)nc(Oc2cccc(C(F)(F)F)c2)n1	0.4%	/	2%	-6%

Rewritten as labelled records: part of the list above
> CC(CC(=O)NCc1ccccc1)C1CCCO1 (stereo not given)
  Rango complex inh = -4.1%
  GLA inh pH 4.5 = -3
  miR-21 reporter = -26%
  Rango dissoc inh = 16%
> Cc1ccc(CC(=O)N(C)CC(=O)Nc2ccc(N3CCOCC3)cc2)cc1C
  Rango complex inh = -0.5%
  GLA inh pH 4.5 = /
  miR-21 reporter = /
  Rango dissoc inh = -9%
> NNC(=O)c1cccc(Cn2cc(Br)c([N+](=O)[O-])n2)c1
  Rango complex inh = -3.8%
  GLA inh pH 4.5 = -10
  miR-21 reporter = -2%
  Rango dissoc inh = -2%
> FC(F)(F)c1cccc(-n2cccc2/C=N/n2cnnc2)c1
  Rango complex inh = -1.0%
  GLA inh pH 4.5 = -4
  miR-21 reporter = -7%
  Rango dissoc inh = 4%

(listing goes on)
SMILES	Rango complex inh	GLA inh pH 4.5	miR-21 reporter	Rango dissoc inh
Cc1ccc(NC(=O)CN2C(=O)C3CC=C(Cl)CC3C2=O)cc1 (stereo not given)	-0.9%	/	0%	-17%
Cn1ncc(Cl)c1C(=O)N/N=C/c1cccc(OC2CSC2)c1	2.8%	9	-11%	-2%
CCOC(=O)C1=C(N)OC2=C(C(=O)CCC2)C1c1ccccc1OCC (stereo not given)	-0.6%	-14	-3%	-2%
COc1ccccc1N1CCN(C2CC(=O)N(c3ccc(F)cc3)C2=O)CC1 (stereo not given)	0.4%	/	0%	-2%
C#CCOCCOCCOCCNc1nc(N2CCN(C(=O)Cn3cc(CCCCN)nn3)CC2)nc(N2CCN(C(=O)[C@H]([C@@H](C)CC)n3cc(CCCN=C(N)N)nn3)CC2)n1	3.5%	/	/	?
CCC1(c2ccccc2)NC(=O)N(CC(=O)Nc2ccc3c(c2)OCO3)C1=O (stereo not given)	0.3%	7	0%	3%
O=C1C(C=Nc2ccccc2)=C(O)c2ccccc21	6.0%	-11	-58%	-8%
CN1CCN(c2ccccc2NC(=O)c2ccc(-c3ccc(Br)cc3)o2)CC1	0.9%	/	12%	-10%
COc1ccc(S(=O)(=O)N[C@H](C(=O)N2CC[C@@]3(O)CCCC[C@H]3C2)c2ccccc2)cc1	-2.0%	7	-1%	-7%
CC(C)=CCOc1ccc([C@@H]2COc3c(ccc4c3C=CC(C)(C)O4)C2)c(O)c1	0.1%	/	/	-2%
COc1ccc(-c2c(C)nn3c(N4CCN(Cc5ccccc5)CC4)cc(C)nc23)cc1OC	6.7%	-26	1%	-3%
COc1ccc(S(=O)(=O)N(CC(=O)Nc2ccc(S(=O)(=O)N3CCOCC3)cc2)c2ccccc2)cc1	-3.8%	-6	-1%	-19%
CCCC[C@@H]1CCCO[C@@](C(=O)NCc2cc(C)n(C)n2)(C(F)(F)F)C1	-3.5%	/	/	2%
CC(C)C[C@H](NC(=O)c1cc2cc(Cl)ccc2n1C)C(=O)N1CCC[C@H]1C(=O)O	1.7%	/	-4%	0%
O=C(c1ccccc1)c1nc2ccccc2n(CCCn2c(=O)c(C(=O)c3ccccc3)nc3ccccc32)c1=O	-4.1%	-4	-1%	-6%
Cn1c(SCC(=O)NC2CC2)nnc1-c1ccccc1	2.7%	/	0%	?
Fc1ccc(NCc2nnc(SCc3nnc(-c4ccccc4)o3)n2Cc2ccccc2)cc1	3.1%	4	19%	-7%
Cc1cc(C)c(S(=O)(=O)c2ccccc2)c(OC(=O)c2cc(F)c(F)cc2Cl)n1	-0.2%	2	0%	-7%
COCc1[nH]nc2c1C(c1cccc(OC)c1)C(C#N)=C(N)O2 (stereo not given)	-3.8%	8	8%	-7%
CCOC(=O)C1=C(C)NC(=S)NC1C (stereo not given)	-5.7%	3	-24%	-4%
CN(C)c1nc(C(F)(F)F)cc(=O)[nH]1	2.6%	5	-3%	1%
Cc1ccc(C2(CC(=O)O)CCOC(C)(C)C2)cc1 (stereo not given)	-1.9%	1	-6%	1%
C=CC[C@@H](Cc1ccc(F)cc1)C(=O)OC[C@@H]1CCCN1C(=O)[C@H](CC=C)CC(=O)N[C@H](CO)Cc1ccccc1	-0.5%	/	/	-2%
N#Cc1ccccc1S(=O)(=O)N1CCN(CC(O)COc2ccccc2F)CC1 (stereo not given)	-4.2%	/	1%	-7%
O=C(O)CC/C(=N\NC(=O)c1ccccc1)c1cccs1	0.0%	1	-55%	1%

Continued:
SMILES	Rango complex inh	GLA inh pH 4.5	miR-21 reporter	Rango dissoc inh
COc1ccc(-n2cnnc2SCC(=O)N2CCN(S(=O)(=O)c3ccccc3)CC2)cc1	3.1%	4	0%	-13%
COc1ccc(N2CCN(C(=O)CSc3nnc(CNc4ccccc4)o3)CC2)cc1	4.5%	3	-2%	3%
NS(=O)(=O)c1ccc(N/N=C/c2ccccc2C(=O)O)c([N+](=O)[O-])c1	3.9%	-6	-2%	-14%
CCSc1nc(N)c(C#N)c(-c2ccco2)c1C#N	?	-7	-31%	11%
CC(=O)c1sccc1NC(=O)CC(C)(C)CC(=O)O	1.3%	-2	-2%	-19%
Cc1ccc(S(=O)(=O)N[C@H](C(=O)OCC(=O)NC(=O)NCc2ccco2)C(C)C)cc1	-1.3%	/	/	-1%
Fc1ccccc1/C=N/Nc1ncnc2nc[nH]c12	1.5%	6	-117%	1%
CC(C)(C)C(=O)Nc1nnc(Cc2ccccc2)s1	4.0%	1	-21%	12%
CCNC(=S)N1CCN(c2nc(-c3ccc(F)cc3)cs2)CC1	4.6%	/	6%	9%
O=C(NCC(=O)N1CCC2(CC1)NCCc1[nH]cnc12)c1ccc2ccccc2c1	0.2%	/	-4%	8%
O=C(N/N=C/c1cccnc1)c1ccc(O)cc1	5.1%	/	-31%	-2%
Cc1nc(NC2=NCN(Cc3ccc4c(c3)OCO4)CN2)nc2ccccc12	/	-2	1%	/
Nc1nc(SCc2ccccc2)n[nH]1	0.5%	4	-16%	-6%
O=C(Cc1ccccc1F)c1ccc(O)cc1O	-1.1%	-3	-22%	4%
Cc1[nH]c(=O)[nH]c(=O)c1S(=O)(=O)N1CCC(C(=O)NC(C)c2ccccc2)CC1 (stereo not given)	5.3%	-4	-8%	13%
